Bioassay records as filed in PubChem.
HIV Env fusion = HIV envelope-mediated fusion inhibition; HeLa-JRFL Env/CEM21 cell fusion, luciferase; inhibition, % at 12.3 µM; 1.1% of 360,000 active; AID 651610;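 active = mean replicate inhibition score of at least 50 and every replicate individually at or above 50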;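 note: 0% = plate neutral controls and 100% = maraviroc near 300 nM; one replicate is shown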
MT1-MMP act inh = inhibitors of human MT1-MMP activation. GFP/RFP ratio change, % at 20 µM. 0.061% of 360,000 active. HT1080 RFP-PRO-GFP cells, GFP/RFP ratio fluorescence, overnight; percent of plate control window, DMSO zero;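 active = GFP/RFP ratio change of at least 30% with cell ATP level not reduced by more than half and red fluorescence within 50% of control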; note: strong numbers were not always called active
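Assay system: HT1080 RFP-PRO-GFP cells. Benchmarks: DMSO vehicle wells and RFP-L50D-GFP reporter cell wells. Times: overnight cell settling, then overnight compound exposure, 37 °C, 5% CO2. Compound: 20 µM single dose, 1% DMSO. Read-out basis: GFP/RFP fluorescence ratio.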
CSC inhib = cancer stem cell inhibition | cancer stem cell-like cells viability, luminescence | inhibition, % at 7.5 µM | 1.1% of 300,000 active | AID 2717;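 active = mean at 75% or more and at least half the replicates too; tested in HMLE shEcad cells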;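 note: 0% = median of negative and 100% = median of positive control wells; the first replicate is given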
PABP FP inh = PABP-poly(A) binding inhibition | inhibition, % at 35 µM | PABP-poly(A) RNA binding, fluorescence polarization | P11940 | 1% of 290,000 active;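 active = 50% or more with normal probe brightness, or confirmed in later tests; about a fifth of its hits are not listed in these tables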;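 note: calls also rest on retests at 20 µM and on dose response follow-up; controls were probe without protein and protein plus probe with vehicle; some compounds called inactive have numbers as strong as hits; many hits fall short of the cut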
Target sequence (P11940 whole entry, looked up): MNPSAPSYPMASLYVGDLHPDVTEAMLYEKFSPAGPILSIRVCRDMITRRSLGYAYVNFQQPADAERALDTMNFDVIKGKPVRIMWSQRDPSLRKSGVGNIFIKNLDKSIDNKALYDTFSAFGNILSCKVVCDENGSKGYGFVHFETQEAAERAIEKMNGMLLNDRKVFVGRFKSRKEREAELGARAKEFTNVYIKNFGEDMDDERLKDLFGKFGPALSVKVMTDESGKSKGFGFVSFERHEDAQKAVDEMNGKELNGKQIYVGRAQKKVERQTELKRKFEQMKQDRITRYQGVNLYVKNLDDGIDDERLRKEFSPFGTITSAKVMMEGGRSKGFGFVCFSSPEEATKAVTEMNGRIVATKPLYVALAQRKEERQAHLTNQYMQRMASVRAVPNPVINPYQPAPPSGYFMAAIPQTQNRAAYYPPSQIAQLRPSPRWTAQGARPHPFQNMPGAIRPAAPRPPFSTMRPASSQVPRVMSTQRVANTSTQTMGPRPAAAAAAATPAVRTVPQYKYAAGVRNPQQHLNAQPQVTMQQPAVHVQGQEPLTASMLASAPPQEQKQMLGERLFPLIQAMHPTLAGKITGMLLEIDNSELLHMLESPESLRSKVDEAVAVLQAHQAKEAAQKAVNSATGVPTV
Rce1 inh = inhibitors of yeast Ras-converting enzyme. yeast membranes, quenched prenylated peptide cleavage fluorescence. calls only. 0.27% of 290,000 active. AID 2563;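 active = fall in fluorescence gain of 50% or more versus controls, with final raw signal at or below 3038400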;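 note: plate controls were neutral control wells for no effect and wells lacking membranes for full effect; tested at 10 µM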
eIF4H inh = inhibitors of RNA binding by human eIF4H; Q15056; eIF4H fluorescence polarization binding assay; inhibition, % at 35 µM; 0.94% of 290,000 active; AID 2012;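 active = 50% or more with normal probe brightness, or confirmed in later tests; about a fifth of its hits are not listed in these tables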;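 note: calls also rest on retests at 20 µM and on dose response follow-up; 0% = protein and probe with vehicle and 100% = probe without protein; strong numbers were not always called active; many hits fall short of the cut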
Yeast UUG start = yeast start codon fidelity modulation. activity score, % at 18.7 µM. 0.13% of 350,000 active. S. cerevisiae UUG-firefly luciferase reporter, luminescence/redox ratio;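 active = replicate mean at a twofold rise or more, about +100% in these data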;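 note: firefly luciferase made from a UUG start codon reports start codon fidelity; reporter light over untreated wells divided by growth signal over untreated wells; some hits fall short of that in this replicate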
eIF4H inh retest = also measured in eIF4H inh; calls as there; inhibition, %; compound at 20 µM; confirmation average;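 mean of two retest wells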
PABP FP inh retest = further read-out of PABP FP inh, marked with its call; inhibition, %; compound at 20 µM; confirmation repeats;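 mean of two retest wells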
MT1-MMP act inh RFP = also measured in MT1-MMP act inh; calls as there; RFP signal change, %; measured here: RFP expression control read;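 0 = vehicle wells; hits needed this value within 50% of zero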
The depositor's hits bear a star; i = inactive; · = not tested or not shown.

SMILES	HIV Env fusion	MT1-MMP act inh	MT1-MMP act inh RFP	CSC inhib	PABP FP inh	Rce1 inh	eIF4H inh	Yeast UUG start	others
COc1ccc(C(=O)N2CCN=C2SCc2cccnc2)c(OC)c1	5	2	-2	-2	3	i	-7	2
Cc1c(NC(=O)c2ccc(CC(C)C)o2)c(=O)n(-c2ccccc2)n1C	-7	-3	0	-22	1	i	-6	-8
CC1(C)CC(NCCC(c2ccccc2)c2ccco2)CCO1 (configuration not stated)	-13	-4	-1	-8	1	i	7	-13
Cc1cccc(N2CCN(S(=O)(=O)c3ccc4c(c3)NC(=O)CO4)CC2)c1C	3	0	1	-5	2	i	-11	1
O=C(CN1C(=O)C(c2ccccc2)Oc2cccnc21)NCc1ccccc1F (configuration not stated)	-4	-6	-6	-10	8	i	3	-13
Cc1[nH]c2ccc(C(=O)O)cc2c1C	10	-2	3	·	6	i	-5	-16
COc1ccc(Cc2nn[nH]n2)cc1	13	6	3	6	12	i	-1	-5
C#CCOCCOCCOCCNc1nc(N2CCN(C(=O)[C@H]([C@@H](C)CC)n3cc(CCCCN)nn3)CC2)nc(N2CCN(C(=O)[C@H](CCCCN)n3cc(CC(C)O)nn3)CC2)n1 (some centres not stated)	-23	1	5	13	·	·	·	7
CCNC(=O)c1ccc(C2SCC(=O)N2Cc2ccco2)cc1 (configuration not stated)	-7	-2	-2	6	-4	·	0	-12
O=C(CSc1nc2ccccc2c(=O)n1-c1ccccc1)c1c[nH]c2ccccc12	20	0	-2	·	9	i	-1	·
CCOc1ccc(/C=N/Nc2cc(N3CCOCC3)ncn2)c(O)c1	11	-2	0	·	·	·	·	-13
COc1ccc2c(CN3CCN(S(=O)(=O)c4cccs4)CC3)cc(=O)oc2c1	-7	1	-1	-5	2	i	22	-7
Cc1cc(C)cc(NC(=O)N2CCCC2C(=O)Nc2ccc(-n3cnnn3)cc2)c1 (configuration not stated)	·	6	6	1	0	·	2	17
CCCCn1c(NC(C)CC)nc2c1c(=O)[nH]c(=O)n2C (configuration not stated)	·	4	11	·	18	i	12	9
CC1(C)CC(=O)C2=C(C1)N(Cc1cccnc1)C(=O)C2(NC(=O)C1CC1)C(F)(F)F (configuration not stated)	-38	4	1	·	-9	i	1	-7
Cc1ccc(CNc2ncccc2-c2nc3cc(Cl)ccc3o2)cc1	-36	0	3	·	-9	i	1	-10
COc1ccc(NC(=O)CN(C)C(=O)CCCN2C(=O)c3cccc4cccc(c34)C2=O)cc1	·	-2	-2	12	·	i	·	-9
COC(=O)c1c(C)nc2nonc2c1N	7	1	5	0	-1	i	1	·
CCC(Cc1ccccc1)NC(=O)C1CCCCC1 (configuration not stated)	-12	9	-4	·	6	i	-4	11
Cc1c(C(=O)NCc2cccnc2)oc2ccc(S(=O)(=O)N3CCC4(CC3)OCCO4)cc12	7	-2	-4	-12	-16	i	-9	-5
Cc1ccc(OCCC(=O)OC(C)C(=O)Nc2c(C)n(C)n(-c3ccccc3)c2=O)cc1 (configuration not stated)	·	5	3	-12	·	i	·	-5
N#Cc1ccc(Oc2cccc(C(=O)O)c2)cc1C#N	8	1	6	·	10	i	-3	-15
O=C(NCc1nnc(SCC(=O)N2CCc3ccccc32)o1)c1cccs1	-3	0	-3	-4	0	i	6	·
Cc1ccc(NCc2ccc(Cl)nc2)c(NCc2ccc(Cl)nc2)c1	11	0	-6	-16	-3	i	1	·
N/C(=N\OC(=O)c1ccccc1)c1ccccn1	-15	0	0	8	-9	i	-10	-90

The final 7 entries of the section above are carried over, then new ones follow:
SMILES	HIV Env fusion	MT1-MMP act inh	MT1-MMP act inh RFP	CSC inhib	PABP FP inh	Rce1 inh	eIF4H inh	Yeast UUG start	others
CCC(Cc1ccccc1)NC(=O)C1CCCCC1 (configuration not stated)	-12	9	-4	·	6	i	-4	11
Cc1c(C(=O)NCc2cccnc2)oc2ccc(S(=O)(=O)N3CCC4(CC3)OCCO4)cc12	7	-2	-4	-12	-16	i	-9	-5
Cc1ccc(OCCC(=O)OC(C)C(=O)Nc2c(C)n(C)n(-c3ccccc3)c2=O)cc1 (configuration not stated)	·	5	3	-12	·	i	·	-5
N#Cc1ccc(Oc2cccc(C(=O)O)c2)cc1C#N	8	1	6	·	10	i	-3	-15
O=C(NCc1nnc(SCC(=O)N2CCc3ccccc32)o1)c1cccs1	-3	0	-3	-4	0	i	6	·
Cc1ccc(NCc2ccc(Cl)nc2)c(NCc2ccc(Cl)nc2)c1	11	0	-6	-16	-3	i	1	·
N/C(=N\OC(=O)c1ccccc1)c1ccccn1	-15	0	0	8	-9	i	-10	-90
CCS(=O)(=O)Nc1ccc2c(c1)OCO2	7	-1	4	-11	-5	i	8	·
CN(C)CCNc1nc2c(c(=O)[nH]c(=O)n2C)n1CCOc1ccccc1	-4	-1	0	·	7	i	-8	·
O=C(OCc1nc2ccccc2[n+]([O-])c1C(=O)c1ccccc1)c1cccnc1	-135	-4	-2	-12	3	i	-2	·
Cc1ccc(OCc2cc(C(=O)N3CCN(CC(=O)NC(C)C)CC3)no2)cn1	0	-2	1	18	-5	i	-17	12
O=C1Nc2cc(C(=O)NCCCN3CCCC3)ccc2S/C1=C\c1ccccc1	-7	3	2	-10	-26	i	-8	-8
CSc1ccc(-c2nc(CSCC(=O)NC3CC3)c(C)o2)cc1	2	-4	-4	-9	-2	i	-6	-12
Cc1cccc(C(=O)N/N=C/c2cc(Br)c(Br)o2)c1	-14	3	-2	-11	-4	i	0	·
COc1ccc(F)cc1CN1CCN(C(=O)CCC(=O)Nc2nnc(C(C)C)s2)CC1	·	2	2	·	-9	i	1	3
Cc1cc(=O)[nH]c2c(C)cc(S(=O)(=O)N3CCCCC3)cc12	-30	12	8	-9	-7	i	-3	4
COc1ccc(-n2ccc(=O)c(C(=O)O)n2)cc1	5	-1	0	5	-7	i	-5	-23
Cc1onc(C(=O)Nc2sc3c(c2C#N)CCCC3)c1[N+](=O)[O-]	-4	-2	1	27	-6	i	16	·
CCCCCOc1ccc(C(=O)CCC(=O)NC(C)c2ccc(S(N)(=O)=O)cc2)cc1 (configuration not stated)	·	-1	-12	-16	·	·	·	-2
C=CCNC(=S)NNC(=O)c1cccnc1	1	4	2	-10	-10	i	6	16
Cc1cc(C)c(N2C(=O)C3C4CC(=O)C(c5ccccc54)C3C2=O)c(C)c1 (configuration not stated)	-12	0	2	-7	0	i	-6	-9
COc1ccccc1OCC(=O)N1CCCC(Nc2ccc(F)c(F)c2)C1 (configuration not stated)	1	-4	2	-15	7	i	3	-4
O=C(CSc1nc2ccccc2c2c1CCCC2)N1CCOCC1	31	-4	-5	-5	20	·	-3	-19
COC(=O)c1ccc(NC(=O)C2C3CCC(C3)C2C(=O)O)cc1 (configuration not stated)	·	2	0	-11	-5	i	-10	2
O=C(N/N=C/c1cccc([N+](=O)[O-])c1)C1COc2ccccc2O1 (configuration not stated)	4	2	1	0	-6	i	9	·
Cc1nn(-c2ccccc2)c2sc(-c3nnc(SCC(=O)O)o3)cc12	·	-1	-1	44	15	i	1	-4
COc1ccc(NC(=O)CCC2CCCC2)cc1OC	-47	3	-7	-9	8	i	-5	-6
Cc1cccc(N=Nc2c(N)n[nH]c2-c2ccc(Cl)cc2)c1	-2	8	-3	·	2	i	8	0
O=C(Nc1cccc2nsnc12)c1ccc(-c2cccc(Cl)c2)o1	·	-16	6	1	18	·	34	-10
C/C(=C\C(=O)c1ccccc1)Nc1ccc(O)cc1	-76	18	17	10	7	i	6	-18
CCCCNC(=O)COC(=O)CNC(=O)c1cc(Cl)cc([N+](=O)[O-])c1	-4	-1	4	-19	9	i	-3	·
O=C(NCc1ccco1)c1ccccc1NS(=O)(=O)c1ccc2c(c1)OCCO2	·	-2	0	5	52	i	0	-6	eIF4H inh retest=-8;PABP FP inh retest=9

An excerpt from the list above, for reference:
SMILES	HIV Env fusion	MT1-MMP act inh	MT1-MMP act inh RFP	CSC inhib	PABP FP inh	Rce1 inh	eIF4H inh	Yeast UUG start	others
C/C(=C\C(=O)c1ccccc1)Nc1ccc(O)cc1	-76	18	17	10	7	i	6	-18
CCCCNC(=O)COC(=O)CNC(=O)c1cc(Cl)cc([N+](=O)[O-])c1	-4	-1	4	-19	9	i	-3	·
O=C(NCc1ccco1)c1ccccc1NS(=O)(=O)c1ccc2c(c1)OCCO2	·	-2	0	5	52	i	0	-6	eIF4H inh retest=-8;PABP FP inh retest=9

(continued)
SMILES	HIV Env fusion	MT1-MMP act inh	MT1-MMP act inh RFP	CSC inhib	PABP FP inh	Rce1 inh	eIF4H inh	Yeast UUG start	others
CNc1cnc(-c2cc(OC)c(OC)c(OC)c2)cn1	-31	5	6	·	·	·	·	-19
CCc1nc2ccc(C(=O)NCCNC(C)=O)cn2c1N(C)CCCc1ccccc1	i	3	6	·	·	·	·	-12
Cc1ccccc1N1CC(O)(c2cccs2)[N+]2=C1CCCC2 (configuration not stated)	-2	-6	-5	10	-10	i	3	·
O=C(Nc1c(F)cc(F)cc1Br)c1cc(S(=O)(=O)N2CCN(c3ccccn3)CC2)ccc1F	14	-2	-11	-11	2	i	42	-4
CCCOC(=O)CN1C(=O)c2ccccc2C1=O	·	5	6	-6	-6	i	2	-31
COc1ccc(C(=O)NNC(=S)NC2CCCCC2)cc1OC	6	5	0	·	3	i	1	-10
CCSc1nnc(CNc2ccc(F)cc2)n1CC1CCCO1 (configuration not stated)	-99	-2	2	3	-2	i	6	-13

The order is random; overall some 2.9% were active at least once.
